# High-throughput results from PubChem BioAssay.
# NPR1 antag = antagonists of human natriuretic peptide receptor Npr1. 76,000 tested, 1.6% active. HEK293 hNpr1 GloSensor cGMP, ANP-stimulated luminescence. Potency, µM (doses to about 46.3 µM), for the others: top-dose activity change, negative = inhibition, actives largely listed as inhibitors. P16066. AID 1347048; active = well fitted inhibition curve with a large enough effect; inconclusive = small, poorly fitted or top-dose-only effect; inactive = no such curve, though single readings can be large or run the other way;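 further: nearly all actives have a fitted effect of over 60% in size; nearly all hits also lower the signal before the agonist is added; a reference antagonist and vehicle were the controls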
# Target sequence (P16066 whole entry, looked up): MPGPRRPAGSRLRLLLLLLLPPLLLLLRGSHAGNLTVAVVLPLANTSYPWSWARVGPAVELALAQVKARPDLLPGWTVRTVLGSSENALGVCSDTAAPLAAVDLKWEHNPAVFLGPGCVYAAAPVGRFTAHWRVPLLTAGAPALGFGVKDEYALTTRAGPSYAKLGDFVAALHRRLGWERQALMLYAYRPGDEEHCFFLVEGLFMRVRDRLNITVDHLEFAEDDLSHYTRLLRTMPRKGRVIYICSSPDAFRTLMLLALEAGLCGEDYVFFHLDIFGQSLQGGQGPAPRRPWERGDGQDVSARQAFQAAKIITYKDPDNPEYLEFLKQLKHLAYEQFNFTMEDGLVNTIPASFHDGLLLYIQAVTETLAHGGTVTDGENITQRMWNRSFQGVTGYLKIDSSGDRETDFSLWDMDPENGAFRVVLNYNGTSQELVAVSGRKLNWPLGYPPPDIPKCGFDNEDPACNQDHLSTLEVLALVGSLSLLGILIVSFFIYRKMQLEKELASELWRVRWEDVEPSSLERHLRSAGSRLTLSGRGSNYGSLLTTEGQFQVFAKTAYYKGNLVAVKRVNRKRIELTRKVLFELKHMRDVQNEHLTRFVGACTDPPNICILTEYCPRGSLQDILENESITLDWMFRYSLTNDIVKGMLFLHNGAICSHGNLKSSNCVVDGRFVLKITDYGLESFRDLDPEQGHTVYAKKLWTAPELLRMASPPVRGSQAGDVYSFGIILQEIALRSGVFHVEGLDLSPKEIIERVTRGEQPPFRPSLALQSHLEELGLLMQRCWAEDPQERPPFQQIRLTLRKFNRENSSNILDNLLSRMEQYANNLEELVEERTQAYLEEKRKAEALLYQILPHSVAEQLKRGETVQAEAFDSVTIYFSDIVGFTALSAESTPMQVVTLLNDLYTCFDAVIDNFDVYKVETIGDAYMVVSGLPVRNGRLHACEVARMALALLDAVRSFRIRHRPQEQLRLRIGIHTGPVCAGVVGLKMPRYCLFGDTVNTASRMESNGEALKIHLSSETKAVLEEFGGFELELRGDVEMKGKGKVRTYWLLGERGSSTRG
#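 Compound pre-incubated 30 min at room temperature on GloSensor-loaded HEK293 cells stably carrying hNpr1 and the pGS-40F cGMP biosensor. Stimulation uses hNppA at 0.1 nM final; luminescence is taken at baseline and 20 min post-agonist.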
# * = called active by the depositor; ? = inconclusive; [ ] = dose if it differs, or a comment. On the % scale 0 is the no-effect control and ±100 the full control effect; potency means the concentration at half of the fitted maximal effect.
SMILES,NPR1 antag
O=C(c1cc(-c2ccccc2)n[nH]1)N1CCc2c(nc(-c3ccc(F)cc3)[nH]c2=O)C1,-19%
COc1ccc(-c2cc3c(cn2)CN(Cc2ccncc2)CCN3)cc1,?
CN1C[C@H](NC(=O)NC2(c3ccccc3)CCOCC2)CCC[C@@H](C(=O)NCc2cc(F)cc(F)c2)CC1=O,2%
OC1(CN2CCN(CCc3ccccn3)CC2)CNCCOC1 (stereo unspecified),7%
c1ccc(COc2ccccc2CN2CCC3(CCNCC3)C2)cc1,-1%
CCC(=O)N1CCN(c2nc3c(s2)CC(C(=O)Nc2ccc(OC)cc2)CC3)CC1 (stereo unspecified),-4%
CCCNc1cc(N2CCC(CCC(=O)Nc3ccc4c(c3)OCCO4)CC2)ncn1,?
Cc1ccccc1CN1CCc2c(n(Cc3ccccc3)n(-c3ccccc3)c2=O)C1,-21%[70.6 µM]
Cc1ccc2nc(CO[C@H]3CN(CC4CC4)C[C@H]3F)[nH]c2c1,-12%[70.6 µM]
O=C1CCCc2occ(C(=O)N3CCCC4(CCNC4)C3)c21 (stereo unspecified),0%
CC(C)c1ccc(N2CC(C(=O)N(C)Cc3cnccn3)CC2=O)cc1 (stereo unspecified),1%
Cc1cnc(C(=O)NC2C[C@H]3CC[C@@H](C2)N3C(=O)c2cc(F)ccc2F)cn1 (stereo partly specified),-13%
COc1ccc(NC(=O)O[C@@H]2CO[C@H]3[C@@H]2OC[C@@H]3NC(=O)Nc2cccc(C(F)(F)F)c2)cc1,-20%
CC(C)Oc1ccc2c(NC(=O)c3ccon3)nn(Cc3ccccc3)c2c1,5%
O=S(=O)(NCCc1noc(-c2ccncc2)n1)c1ccccc1,?
COCCNC(=O)c1ccc2c(c1)N(C)C(CC(=O)NC(C)(C)CO)CO2 (stereo unspecified),2%
Cc1nc(-c2cnccn2)n(CC(=O)Nc2cccc(C(F)(F)F)c2)c(=O)c1CCO,-14%
CC(C)NC(=O)C[C@@H]1O[C@H](CNCc2cccc(Cl)c2)[C@@H](O)[C@H]1O,-2%[70.6 µM]
CN(c1cc(=O)c2ccnc(-c3ccc([S+](C)(=O)[O-])cc3)c2o1)C1CCOCC1,2%[70.6 µM]
COc1ccc(-c2ccc3nnc(CNC(=O)c4nccc5ccccc45)n3n2)cc1,8%
Cc1cn2nc(C(=O)N3CCC(C(=O)NCc4ccccn4)CC3)cc2c(=O)[nH]1,18%
COCC(=O)N1CCC(O)(c2csc(CN3CCC[C@@H]3COC)n2)CC1,3%[70.6 µM]
COCCNC(=O)c1ccc(OC2CCN(CCc3ccccc3)CC2)c(Cl)c1,11%
Cc1ccc(CN2CCC3(CC2)NC(=O)c2ccccc2O3)cc1,-1%[70.6 µM]

# In a second layout: results already given
CC(C)Oc1ccc2c(NC(=O)c3ccon3)nn(Cc3ccccc3)c2c1
  NPR1 antag: 5%

CC(C)NC(=O)C[C@@H]1O[C@H](CNCc2cccc(Cl)c2)[C@@H](O)[C@H]1O
  NPR1 antag: -2%[70.6 µM]

Cc1ccc(CN2CCC3(CC2)NC(=O)c2ccccc2O3)cc1
  NPR1 antag: -1%[70.6 µM]

Cc1cn2nc(C(=O)N3CCC(C(=O)NCc4ccccn4)CC3)cc2c(=O)[nH]1
  NPR1 antag: 18%

# The list continues:
SMILES,NPR1 antag
O=C(O)C1CNCCN(Cc2ccc(-c3nn[nH]n3)cc2)C1 (stereo unspecified),4%
CCCN(CCC)C(=O)c1coc(COc2ccc3sc(C)nc3c2)n1,?
CC1=C[C@@H](CNS(C)(=O)=O)[C@H](C(C)C)C[C@H]1CC(=O)Nc1ccccn1,1%[70.6 µM]
COc1ccc(-c2noc(Nc3ccc(OC)c(OC)c3)n2)cc1,-14%
COCCNC(=O)[C@@H]1Cc2cn(Cc3ccccn3)c3cccc(c23)[C@H](CC(C)C)N1,0%[70.6 µM]
CCCNC(=O)N1CCCCCNC(=O)[C@@H]2CCCC[C@@H]21,-8%
CCS(=O)(=O)N(C1CC1)C1CCOC2(CCN(C(=O)c3ccccc3)CC2)C1 (stereo unspecified),-5%
CCOc1ccc(NC(=O)C2(Cc3cccnc3)CCCCC(=O)N2)cc1 (stereo unspecified),-2%
NC(=O)c1ccc(OC2CCN(C(=O)c3ccc(F)cc3)CC2)nc1,-18%
COc1ccc(CN2Cc3[nH]cnc3C[C@H]2C(=O)NC2CCCCC2)c2ccccc12,-19%[70.6 µM]
COCCNC(=O)[C@H]1CCC[C@H]1NC(=O)c1ccc(OC)cc1,2%
COc1ccc(-c2onc(C)c2C(=O)NCc2c(OC)cc(OC)cc2OC)cc1,-10%
COc1ccc(NC(=O)C2=NO[C@@H]3CN(CCc4ccccc4)C[C@H]23)cn1,1%[70.6 µM]
CCCCN1C(=O)c2ccccc2C(C(=O)NCCc2ccc(OC)cc2)C12CCCCC2 (stereo unspecified),-25%
Cn1nccc1-c1cccc(-c2nc(N3CCOCC3)n(C)n2)c1,0%
O=C(NC1C[C@H]2CC[C@@H](C1)N2C(=O)c1ccc(Cl)s1)c1ccncc1 (stereo partly specified),-2%
CN1[C@@H](CCC(=O)NCc2ccccc2)CNC(=O)[C@@H]2[C@H]1CCN2Cc1ccc(C(F)(F)F)cc1,-5%
CCCCN1CC2(CCCN(C(=O)c3cc[nH]c3C)C2)CCC1=O (stereo unspecified),0%
COc1cccc(-c2nc3cnccn3c2NCCC(=O)N2CCN(C(C)C)CC2)c1,2%
O=C(c1cccnc1)N1CCN(c2cc(-c3cccs3)[nH]n2)CC1,-3%
O=C(NCc1ccncc1)c1nc2c(o1)CCN(Cc1ccc3[nH]ccc3c1)CC2,?
Cc1ccc2[nH]c(C(=O)N3CCC(=O)N(CC4CC4)C(C(C)C)C3)c(C)c2c1 (stereo unspecified),3%
Cc1noc(-c2ccn3c(CNC(=O)c4ccco4)nnc3c2)n1,6%
CCNC(=O)N1CCCC1c1noc(CCC(=O)NCCC(C)C)n1 (stereo unspecified),-1%
O=C(C1CC1)N1CCN(c2nc3ncccc3o2)CC1,4%[70.6 µM]
CN(Cc1cccc(C(F)(F)F)c1)Cc1nc(-c2ccccc2)no1,-5%
O=C(Cn1nc2c(cc1=O)CCCCC2)Nc1nc(-c2ccncc2)cs1,-19%
COC(=O)c1ccc2nc(C[C@@H]3C[C@@H](C(C)C)[C@H](CNC(=O)[C@@H]4CCCC[C@@H]4C(=O)O)C=C3C)[nH]c2c1,-3%
COCc1ccc(CN[C@H]2C[C@@H](Cc3cc(CCO)on3)C2(C)C)o1,-2%[70.6 µM]
O=C(C1C2C(=O)N(Cc3ccc(F)cc3)C[C@@]23C=C[C@@H]1O3)N1CCSCC1 (stereo partly specified),0%
NC(=O)c1ccccc1OCC(=O)N1CC(CNc2ccccc2)C2(C1)CN(c1ccccc1)C2 (stereo unspecified),-4%
CN(C)c1ccc(C(=O)NC2CC(c3nnc(CO)n3C3CC3)C2)cn1 (stereo unspecified),-1%
COCCN1C(=O)CS(=O)(=O)C12CCN(C(=O)c1ccc(OC)cc1)CC2,-19%
CCN1c2cc(C(=O)Nc3ccc(OC)cc3C)ccc2C(=O)N2CCCCCC21 (stereo unspecified),-6%
CCN1CCN(C(=O)C2CCCN(Cc3cccnc3)CCC(=O)NCC2)CC1 (stereo unspecified),1%
O=C(c1ccc(F)cc1Cl)N1CCc2c(nc3cc[nH]n3c2=O)C1,1%
O=C1C[C@@H]2CCN(C(=O)c3ccccc3)C[C@@H]2CCN1Cc1cccnc1,4%[70.6 µM]
C[C@]1(CO)C2CC[C@@H](O)[C@@H](CC(=O)N3CCC[C@H]3CO)[C@]2(C)CC[C@H]1OC(=O)Nc1ccccc1 (stereo partly specified),-10%
CN1CCC(OC2CCN(C(=O)c3ccc(C(F)(F)F)cc3)CC2)CC1,-8%
Cc1occc1C(=O)N1CC(F)(F)C[C@H]1c1nnc(C2CC2)o1,4%
O=C(c1ccccc1F)N1CCC2(CC1)CC(OCC1CC1)CCO2 (stereo unspecified),-8%
COCc1cn(C[C@H]2C[C@@H](NC(=O)c3ccc(C#N)cc3)[C@H](O)[C@@H]2O)nn1,-3%[70.6 µM]
O=C(Nc1nccs1)[C@@H]1C[C@@H](c2cccc(C(F)(F)F)c2)N(CC2CCOCC2)C1,-20%[70.6 µM]
CN1C(=O)Cc2ccccc2C1C(=O)NCc1ccc(F)cc1Cl (stereo unspecified),-15%
COCCN1CCC2(CCC1=O)CCN(S(=O)(=O)c1cc(C)ccc1C)CC2,4%
COc1ccc(Cn2c(C3CCN(C(=O)Cc4ccc(Cl)cc4)CC3)n[nH]c2=O)cc1,-13%
CC(C)C(=O)N1CCC(Cc2nc(C3CCOCC3)no2)CC1,11%
CCn1c(CN2CCN(CC(=O)N3CCCC3)CC2)nnc1C1CC(N)C1 (stereo unspecified),0%
Cc1nn(CCC#N)c(C)c1[C@@H]1C=C[C@@H](NC(=O)Nc2ccc(Cl)cc2)C1,-17%[70.6 µM]
CO[C@@H]1CCOC[C@H]1NC(=O)c1cc(N2CCCCC2)ccc1Cl,-4%
CN(C)CCNC(=O)c1cccc2c1CCN2C(=O)Nc1ccccc1,?
COc1cc(NC(=O)N2CCCC(Cn3c(C4CC4)nc4cccnc43)C2)cc(OC)c1 (stereo unspecified),1%
Cn1cccc(C(=O)N2CCC3(CC2)CN(CCOc2ccccc2)C(=O)O3)c1=O,5%
O=C1NC2(CCN(C(=O)CCc3cccnc3)CC2)CC1c1ccccc1 (stereo unspecified),6%
CNC(=O)[C@@H]1CN(Cc2ccc(Br)o2)C[C@H]1c1nc(COC)no1,3%
COCCn1cc(CN2CCc3ccccc3C2)ccc1=O,5%
Cc1ccc(C(=O)N2CCC(N3CC4CC(C3)[C@H]3CCCC(=O)N3C4)CC2)s1 (stereo partly specified),1%
Cc1ccc(F)cc1CN1CCC2(CCCO2)CCC1=O (stereo unspecified),-2%
COc1ccc(-c2[nH]nc3ncc(C(=O)NCC(C)C)nc23)c(C)c1,-9%[70.6 µM]
COCCn1ccc2c(C3=CCOCC3)nc(-c3ccc4c(c3)CNC4=O)cc21,-1%[70.6 µM]

# Some of the entries so far, with each value named:
Compound: O=C1NC2(CCN(C(=O)CCc3cccnc3)CC2)CC1c1ccccc1 (stereo unspecified)
  NPR1 antag: 6%

Compound: CCC(=O)N1CCN(c2nc3c(s2)CC(C(=O)Nc2ccc(OC)cc2)CC3)CC1 (stereo unspecified)
  NPR1 antag: -4%

Compound: COCCn1ccc2c(C3=CCOCC3)nc(-c3ccc4c(c3)CNC4=O)cc21
  NPR1 antag: -1%[70.6 µM]

Compound: CCCNc1cc(N2CCC(CCC(=O)Nc3ccc4c(c3)OCCO4)CC2)ncn1
  NPR1 antag: ?

# Following part
SMILES,NPR1 antag
NC1CCCCN(C(=O)CCc2n[nH]c3c2CCCC3)C1 (stereo unspecified),-2%
Cc1cc(C(=O)NC2CCc3nnc(C)n3CC2)c(C)n1Cc1ccco1 (stereo unspecified),2%
O=C(c1ccc2cc[nH]c2c1)N1CCC(N2C(=O)C(OCC3CC3)C23CCOCC3)CC1 (stereo unspecified),8%
Cc1ccc(NC(=O)CN2C(=O)NC(c3ccc(Cl)cc3)C3=C2COC3=O)c(Cl)c1 (stereo unspecified),?
COc1cccc(-c2cn3c(n2)N(C(=O)C2CCCO2)CCC3)c1 (stereo unspecified),-7%
Cc1cccc(-c2nocc2CCC(=O)O)c1,0%
Cc1cc(C(=O)N2C[C@@H](CO)[C@H](c3ccccn3)C2)ccn1,0%
Cc1ccc2c(n1)N(C)[C@H](CO)CCN(Cc1ccc(C(C)C)cc1)C2,-16%[70.6 µM]
NC(=O)[C@@H](Cc1c[nH]c2ccccc12)NC(=O)C1=C[C@@H](NS(=O)(=O)c2cccs2)[C@@H](O)[C@H](O)C1,8%
O=C(NCc1ccc(F)cc1)C1CN(c2ccccc2)C(=O)N1 (stereo unspecified),13%[70.6 µM]
COc1ccc(Nc2cnc3ccc(-c4ccc(OC)nc4)nn23)cc1,0%[70.6 µM]
CCCNC(=O)N1CCC2(CC1)N(C)C(=O)CS2=O (stereo unspecified),4%
CCN1C(=O)Cc2cc(C(=O)NCc3cc(OC)ccc3OC)ccc21,1%
CC(=O)c1c(C)nn(CC(=O)NC2CC(c3nnc(CN(C)C)n3C)C2)c1C (stereo unspecified),3%
Cc1cc(C(N)=O)c(-c2ccc(N)nc2)nc1C,5%
CC1CCCN1c1ncnc2c1CN(C1CCC1)C(=O)CN2C (stereo unspecified),2%[70.6 µM]
C[C@]1(CO)[C@H]2Cc3sc(NC(=O)C4CCC4)nc3[C@@H](CC(=O)N3CCOCC3)[C@]2(C)CC[C@H]1O,1%
COC[C@H]1NC(=O)CC[C@H]1C(=O)N1CCCc2ccccc21,-3%
O=C(N[C@@H]1CN(Cc2c(F)cccc2Cl)C[C@H]1CO)C1CC1,-13%
CCC(NS(=O)(=O)c1cc(-n2cccn2)ccc1OC)C1CC(O)C1 (stereo unspecified),6%
COc1ccc(Cl)cc1-c1ccc2c(c1)C(=O)N1CCN(C(=O)C3CCCCC3)C[C@@H]1C(=O)N2,2%

# The list is partial (hit frequency here may not be typical).
